BJeLR lethal: kills HRASV12-expressing BJeLR cells | BJeLR (HRASV12) viability, CellTiter-Glo ATP luminescence, 48 h; reference of the scale not given here | inhibition, % (concentration not given with the values) | 300,000 tested, 0.17% active | AID 1554;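 active = replicate mean above 50%; inconclusive = above 50% but judged a plate artefact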;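 also: 50 nL library stock added to about 25 µL; numbers are from one replicate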
Mtb hypoxia rep: reduces hypoxia-regulated biosensor signal in M. tuberculosis. fluorescence inhibition, % (test concentration not listed). 300,000 tested, 0.1% active. AID 1159583. M. tuberculosis hypoxia-regulated fluorescent reporter, fluorescence;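 active = 35 to 45% if threefold the growth effect, above 45% if 1.5-fold the growth effect; inactive = the rest, general growth blockers included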;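 also: wells of about 50 µL received 100 nL stock; 0% = vehicle wells and 100% = reference inhibitor wells; whole bacteria with a GFP reporter of the hypoxia response; strong numbers were not always called active; many hits fall short of the cut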
ugtP null kill: compounds lethal to S. aureus RN4220 ugtP deletion mutant; growth inhibition, % (no concentration beside the values); OD600 growth, 16 h; some inactives read as strong as hits; AID 1259309; 330,000 tested, 0.54% active;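 active = z-score under -3 and OD600 up to 0.15 on both plates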;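 also: plate controls were untreated wells for no effect and antibiotic for full effect; wells of about 80 µL received 100 nL stock; the first replicate is given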
PrP 5UTR inh: suppresses PrP 5' UTR mRNA reporter expression; cell-based PrP 5' UTR mRNA reporter, plate reader; inhibition, % (no concentration beside the values); 340,000 tested, 0.35% active;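 active = every replicate at 50% or more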;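 also: 0 = median of the neutral control wells; tested in H4 reporter cells; numbers are from one replicate; inactives centre near -14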
Autofluor counter: flagged as autofluorescent in microsphere protease counterscreen; compound autofluorescence counterscreen, microsphere flow cytometry; hits give high values; fluorescence intensity (no concentration beside the values); 360,000 tested, 3.1% active;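 active = at least 3 SD above the mean of all compounds, about 16000 in these data; inconclusive = too few beads counted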;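 also: 100 nL of 1 mM stock went into each well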
RN4220 kill: S. aureus RN4220 growth inhibition; inhibition, % (concentration not given with the values); 330,000 tested, 0.33% active; OD600, 16 h;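 active = z-score of -3 or lower and OD600 up to 0.18 on both plates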;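 also: plate controls were untreated cells for no effect and reference antibiotic for full effect; stock transfer was 100 nL into about 80 µL; one replicate is shown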
Mtb hypoxia rep growth: also measured in Mtb hypoxia rep; calls as there; growth inhibition, %; measured here: M. tuberculosis growth (absorbance);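 0% = vehicle and 100% = reference antibiotic; read after six days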
* = called active by the depositor; u = inconclusive; x = not tested or not shown; & = joins results of further samples.

Each structure is followed by: BJeLR lethal	Mtb hypoxia rep	Mtb hypoxia rep growth	ugtP null kill	PrP 5UTR inh	Autofluor counter	RN4220 kill
O=C(NCc1ccccc1)C(=O)NCC1OCCN1C(=O)c1cccs1 (centres undefined)
 : -1.8	10.0	-5.3	7.6	-26.6	10036	6.2
CCOc1ccc(C(CC(=O)O)NC(=O)Cc2ccc(Cl)cc2)cc1 (centres undefined)
 : 0.2	16.0	-1.1	6.8	-16.4	4147	3.2
NC(=O)c1ccccc1NC(=O)c1cccc(C(=O)Nc2ccccc2C(N)=O)n1
 : -11.8	2.5	7.0	1.2	x	6338	1.0
CC12CC3CC(C)(C1)CC(CN)(C3)C2
 : 8.8	2.8	9.9	-5.2	-9.0	3198	-2.5
Nc1c(C(=O)Nc2ccc3c(c2)OCCO3)nnn1Cc1cccc(Cl)c1
 : 10.5	7.6	4.9	6.5	-55.0	5467	5.5
COc1ccc(OC)c(N(CC(=O)N2CCCC2)S(=O)(=O)c2ccccc2)c1
 : -10.7	0.3	2.1	3.1	18.2	4349	5.1
CCOC(=O)CSc1nnc(NC(=O)CN2CCCCC2)s1
 : 0.5	0.5	8.0	17.5	-12.0	3694	7.9
O=C(O)CC(c1ccc(Cl)cc1)n1cccc1 (centres undefined)
 : -2.0	x	x	-11.0	-11.2	2440	0.0
O=C(CCN1C(=O)c2ccccc2S1(=O)=O)Nc1ccc(C(=O)O)cc1
 : 2.7	4.1	-2.9	0.3	-20.0	5877	4.4
CC1CC(C)CN(C(=O)C2CCN(S(=O)(=O)c3c(Cl)cccc3Cl)CC2)C1 (centres undefined)
 : 0.7	3.7	10.3	0.8	-2.4	5255	-0.8
Cc1sc2ncnc(N3CCC(C(=O)NNC(=O)c4ccc(F)cc4)CC3)c2c1C
 : 6.6	5.3	13.8	-5.0	2.7	5508	-4.5
CCC(C)C(C)=NNC(=O)C1COc2ccccc2O1 (centres undefined)
 : x	0.1	-2.8	3.2	x	x	3.6
COc1ccc(N2C(=O)S[C@@H]3CS(=O)(=O)C[C@@H]32)cc1
 : -1.9	-3.2	-9.4	4.7	-2.7	2001	4.4
COc1ccc(NC(=O)Cn2nnc(C(=O)NCc3cccs3)c2N)cc1Cl
 : -9.1	10.1	2.9	-3.7	-1.4	4331	-2.2
O=C(CCN1C(=O)COc2ccccc21)NCCCN1CCN(c2ccc(F)cc2)CC1
 : -1.9	19.8	5.1	1.5	-23.7	8935	6.5
CN(CC(=O)Nc1ccccc1C(F)(F)F)C(=O)CC1OC(=O)c2ccccc21 (centres undefined)
 : 4.0	4.9	-1.1	-0.4	-8.4	6685	0.6
Cc1cc(C)n2c(SCC(O)=C(C#N)c3nc4ccccc4[nH]3)nnc2n1
 : x	5.7&-1.9	3.4&-5.6	2.6&-10.1	-22.7	2831	5.3&0.2
COc1ccc(C(=O)Nc2ccc(OCc3ccccc3)cc2)cc1[N+](=O)[O-]
 : -13.2	13.5	2.3	-3.1	-25.4	5150	2.9
CC(=O)Oc1ccc(-c2nc3ccccc3c(=O)o2)cc1
 : 11.8	19.4	13.3	4.7	-19.4	3425	1.9
CC(/C=C/c1cccc([N+](=O)[O-])c1)=N\NC(=O)c1ccncc1
 : 4.6	x	x	x	-26.4	1948	x
CC1SCC(=O)N(CC(=O)NC2CCCCC2)C1=O (centres undefined)
 : -1.7	-6.2	-5.4	6.1	-34.5	3257	1.2
O=C(CCN1C(=O)c2ccccc2C1=O)N(CCO)Cc1ccccc1
 : -3.2	6.0	3.4	-3.6	-21.3	2989	3.4
Cc1cc(C)c(NC(=O)COC(=O)c2nc3nccc(C)n3n2)c(Cl)c1
 : x	13.1	7.2	1.4	-5.6	x	3.7
CCc1cccc(N=c2c([N+](=O)[O-])nn(-c3ccc(Cl)cc3)n2O)c1
 : 2.7	5.8	1.9	91.8*	4.3	22799*	94.5*
CC(=O)N(C)c1ccc(N=Cc2c(O)ccc3ccccc23)cc1
 : -5.0	5.9	5.0	1.0	-21.3	3065	3.2
Cc1ccc(CC(NC(=O)c2ccccc2)C(=O)NCC(=O)O)cc1 (centres undefined)
 : -11.0	2.8	1.7	3.3	-16.0	22985*	-1.6
CCN(C(=O)COC(=O)/C=C/c1ccc(OC(F)F)c(OC)c1)C1CCS(=O)(=O)C1 (centres undefined)
 : x	11.2	3.9	12.4	-26.3	3620	4.5
Cc1cccc(NC(=O)C(=O)NCc2ccc3c(c2)OCO3)c1C
 : 4.6	11.0	-1.0	2.7	-2.9	4548	1.4
CCCCCCCCCCSc1n[nH]c(NC(C)=O)n1
 : 5.0	1.0	7.6	6.2	-22.0	5821	4.2
Cc1ccc(C=c2sc3nc(-c4cccs4)nn3c2=O)o1
 : x	-1.0	3.2	-5.7	x	x	3.1
COC(=O)C1=C(c2c(C)noc2C)CC2CCC1N2C(=O)N1CCOCC1 (centres undefined)
 : x	13.6	-2.7	-1.7	x	x	6.2
CCN(CC)S(=O)(=O)c1cccc(NC(=O)COc2ccc(C#N)cc2OC)c1
 : -0.5	10.8	11.1	3.9	3.9	2598	8.1
CCCC(c1nnnn1CC(=O)OCC)N(Cc1cc2ccc(C)cc2[nH]c1=O)C1CCCC1 (centres undefined)
 : 13.3	x	x	-0.3	1.5	3457	1.0
CN(C1CCCCC1)S(=O)(=O)c1ccc(NC(=S)NC(=O)c2cccs2)cc1
 : 1.5	-6.6	-6.7	12.2	-35.3	11480	2.6
CCC(=O)NS(=O)(=O)c1ccc(N=NN2CCCCC2)cc1
 : 0.7	-3.4	-3.3	-14.4	-57.7	9187	1.2
Cc1ccc(C)c(S(=O)(=O)N2CCCC2CNC(=O)C(=O)NCCc2ccccc2)c1 (centres undefined)
 : 15.9	7.5	0.5	8.5	-28.5	u	0.9
C=CCNc1cnn(-c2ccc(C)cc2)c(=O)c1Sc1ccc(C)cc1
 : -1.8	6.6	1.0	-9.3	-7.5	4512	1.9
Cc1sc2ncnc(N3CCC(C(=O)Nc4cc(C(F)(F)F)ccc4OCC(F)(F)F)CC3)c2c1C
 : x	0.9	5.6	0.9	-23.4	4372	-3.1
COC(=O)Nc1nnc(-c2ccccc2Cl)s1
 : -7.9	x	x	-2.2	-86.7	5185	5.8
CN(C)c1nc2c(c(=O)[nH]c(=O)n2C)n1Cc1ccccc1Br
 : -4.4	1.9	1.5	-1.4	-14.5	u	-3.3
COC(=O)C1=C(C)N(CC2CCCO2)C(=O)C1 (centres undefined)
 : -8.5	7.4	0.6	1.4	-10.5	u	2.4
COc1cccc(N2CCN(CC(=O)Nc3ccccc3C(=O)NCc3ccccc3)CC2)c1
 : x	10.8	3.4	3.9	-28.3	8076	5.8
CCCCNC(=O)CSc1nc2cc3c(cc2c(=O)n1CCC(=O)NCCc1ccc(OC)c(OC)c1)OCO3
 : -3.5	3.8	9.0	8.1	-13.2	3939	-0.6
COc1ccccc1NC(=O)CCSc1nnc(-c2ccco2)o1
 : -6.6	0.9	4.6	1.2	-7.3	4597	1.7
COCCn1c(=N)c(C(=O)NCc2ccco2)cc2c(=O)n3ccccc3nc21
 : x	14.2	8.4	2.9	-6.6	3536	2.7
O=C(O)c1cccc(NC(=S)NC(=O)c2ccncc2)c1
 : -9.1	10.3	-4.4	4.9	-16.9	4084	3.6
Cn1nc(C(=O)Nc2cccc(S(=O)(=O)N3CCCCC3)c2)c2ccccc2c1=O
 : x	0.3	11.8	-1.3	-21.4	x	6.9
COCCNC(=O)CN(CCc1ccccc1)S(=O)(=O)c1ccc(OC)cc1
 : -4.6	17.4	14.8	0.5	-27.8	9338	3.5
CCn1cc(CNCc2ccc(OCC(O)CN(C)Cc3ccccc3)cc2)cn1 (centres undefined)
 : 1.5	-6.1	0.6	-0.5	-27.4	5254	0.2
COc1cccc(-n2c(Cc3cc(=O)[nH]c(=O)[nH]3)nnc2SCC(=O)N2CCCC2)c1
 : 1.6	7.8	-4.9	4.0	-2.2	6501	-0.4
CC(=NNC(=O)c1cc(-c2ccncc2)nc2ccccc12)c1ccc(N2CCOCC2)cc1
 : x	-0.8	-2.3	-1.0	x	x	0.6
Cn1nnc2cc(NC(=O)N3CCN(c4ccccn4)CC3)ccc21
 : -5.2	9.5	4.1	9.9	-4.0	4467	1.0
COCCCNC(=O)c1ccc(N2CCCC2)c(NS(=O)(=O)c2ccc(C)cc2)c1
 : 13.5	2.4	-1.7	0.4	-22.9	24938*	2.1
O=C(O)CCC(=O)c1ccc2c(c1)OCCO2
 : -5.4	x	x	2.9	-19.8	5786	0.2
CC(CC(=O)NCc1ccc(Cl)cc1)=NNC(=O)Cc1ccccc1
 : x	6.4	8.7	7.6	x	x	1.9
CC(=O)N1N=C(c2cccc(Br)c2)OC12CCCC2
 : -3.3	-5.5	6.3	12.6	-15.6	4036	6.1
CC(=O)Nc1sc2c(c1C(=O)N1CCOCC1)CCCCC2
 : -0.6	x	x	3.4	1.6	3885	8.9
O=C(O)[C@@H]1Cc2ccccc2N1
 : -7.2	3.8	7.3	-3.0	1.4	5594	2.8
O=c1n(-c2ccccc2)c(=O)n2n1CCC2
 : -4.3	x	x	2.2	-0.8	x	3.9
COC(=O)C(Cc1ccccc1)NC(=O)C1CC1C(NC(=O)OCc1ccccc1)c1ccccc1 (centres undefined)
 : x	-0.3	-6.6	8.0	x	x	4.8

3 compounds already listed, ordered by molar mass, descending.
Each structure is followed by: BJeLR lethal	Mtb hypoxia rep	Mtb hypoxia rep growth	ugtP null kill	PrP 5UTR inh	Autofluor counter	RN4220 kill
CCCCNC(=O)CSc1nc2cc3c(cc2c(=O)n1CCC(=O)NCCc1ccc(OC)c(OC)c1)OCO3
 : -3.5	3.8	9.0	8.1	-13.2	3939	-0.6
COc1cccc(N2CCN(CC(=O)Nc3ccccc3C(=O)NCc3ccccc3)CC2)c1
 : x	10.8	3.4	3.9	-28.3	8076	5.8
Cn1nnc2cc(NC(=O)N3CCN(c4ccccn4)CC3)ccc21
 : -5.2	9.5	4.1	9.9	-4.0	4467	1.0

Next section.
Each structure is followed by: BJeLR lethal	Mtb hypoxia rep	Mtb hypoxia rep growth	ugtP null kill	PrP 5UTR inh	Autofluor counter	RN4220 kill
CCCCCCCCCNC(=O)C(NC(=O)COc1ccccc1)C1NC(C(=O)OC)C(C)(C)S1 (centres undefined)
 : x	3.9	7.6	-30.9	x	x	1.8
CCn1c(SCC(=O)Nc2oc(-c3ccccc3)c(-c3ccccc3)c2C#N)nnc1-c1cc(OC)cc(OC)c1
 : 3.2	0.3	0.1	-3.4	x	11256	-4.4
O=C(CC1OC(=O)c2ccccc21)NCC1COc2ccccc2O1 (centres undefined)
 : -6.3	8.8	7.0	1.3	-13.6	5105	1.6
Cc1ccc(S(=O)(=O)N2CCN(CC(O)CN3CCOCC3)CC2)cc1 (centres undefined)
 : x	7.6	-0.3	6.0	-26.7	3071	4.0
CN1CCN(C(=O)CSc2nc(-c3cccs3)ccc2C#N)CC1
 : 2.3	x	x	-3.7	-29.8	2389	-6.6
COc1ccccc1N1C(=O)c2ccccc2NC1c1ccc(O)cc1 (centres undefined)
 : -1.7	-1.1	0.8	-0.9	-13.4	3943	-0.6
O=C(Nc1ccccn1)c1ccc(S(=O)(=O)N2CCCCCC2)cc1
 : -9.5	4.7	-1.5	14.1	-64.2	4169	7.0

Assay outcomes (PubChem)
